# Methyltransferases: Primary Screen for Target Class Profiling of Small Molecule Inhibitors of Methyltransferases; 25,000 tested, 3.9% active; purified enzyme, MTase-Glo SAH luminescence; stronger effect = lower value; AID 1745853, 2022; calls only at 40 µM; active = -50% or lower on at least one of six enzymes; inconclusive = the cases between; inactive = as a rule above -30% on all six;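 note: enzymes were COMT GAMT GNMT HNMT NNMT and PNMT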
#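 Each enzyme was assayed with SAM and its substrate. SAH formation detected by MTase-Glo luminescence; single-point 40 uM screen[…].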
# Calls only; i = inactive; u = inconclusive; + = active, no number. % is set by controls: 0 for no effect and ±100 for the full control effect. Only part of the results is shown; the hit share may differ from the screen's.
Structure	Methyltransferases
C[C@@H]1CC[C@]2(C(=O)O[C@@H]3O[C@H](CO)[C@@H](O)[C@H](O)[C@H]3O)CC[C@]3(C)C(=CCC4[C@@]5(C)C[C@@H](O)[C@H](O)[C@@](C)(C(=O)O[C@H]6[C@H](O)C[C@@]7(C)C(CC[C@]8(C)C7CC=C7[C@H]9[C@](C(=O)O[C@@H]%10O[C@H](CO)[C@@H](O)[C@H](O)[C@H]%10O)(CC[C@@H](C)[C@@]9(C)O)CC[C@]78C)[C@@]6(CO)C(=O)O)C5CC[C@]43C)[C@@H]2[C@]1(C)O (some centres not stated)	i
Cc1cc2c(cc1S(=O)(=O)Nc1ccc(F)cc1)n(C)c(=O)n2C	i
CCC(C)/C=C(C)/C=C/C1=CC2=C(Cl)C(=O)C(C)(OC(C)=O)C(=O)C2=CN1CCCCC(N)C(=O)O (configuration not stated)	i
C=CC1(C)C=C2C(=O)CC3C(C)(C)CCCC3(C(=O)O)C2(O)CC1 (configuration not stated)	i
CCN(CCCNC(=O)CCc1nnc2n(CC(C)C)c(=O)c3ccccc3n12)c1cccc(C)c1	i
CCNC(=O)C1OC(n2cnc3c(N)nc(NCCc4ccc(CCC(=O)O)cc4)nc32)C(O)C1O (configuration not stated)	i
CC1(C(=O)NC2CCCCC2)Cn2c(cc3ccccc32)C(=O)N1Cc1ccc2c(c1)OCO2 (configuration not stated)	i
Cc1c(Cl)cccc1N1C(=O)c2cc(-c3cccs3)nn2CC1(C)C(=O)NC1CCCCC1 (configuration not stated)	i
CC1CCc2c(cc(Br)c(F)c2Br)N1C=O (configuration not stated)	u
O=C(NCCc1ccccc1)c1cc(-c2ccc(Cl)cc2)nc2n[nH]c(-c3ccccc3)c12	i
COC(=O)C1=C(C)N=C2SC=C(CC(=O)NCCCN3CCCC3=O)N2C1c1ccccc1 (configuration not stated)	i
COc1ccc(-c2cc3n(n2)CC(C)(C(=O)NCc2ccccc2OC)N(c2ccc(C)c(C)c2)C3=O)cc1 (configuration not stated)	i
CCn1c(=O)n(CC)c2cc(S(=O)(=O)NCc3ccccc3Cl)ccc21	i
O=C(NCc1c[nH]c2ncccc12)c1ccccc1Cl	i
O=C(NC1CCN(c2nnc3ccccn23)CC1)c1ccc(Cl)s1	i
Cc1ccc(N2C(=O)c3ccc(-c4ccco4)n3CC2(C)C(=O)NC2CCCC2)cc1Cl (configuration not stated)	i
COc1cccc(NS(=O)(=O)c2ccc3c(c2)N(C)C(=O)CC(=O)N3C)c1	i
CN(C/C=C/c1ccccc1)C(=O)C1CCC(=O)N(Cc2cccc(F)c2)C1 (configuration not stated)	i
CC(CNC(=O)CCc1nnc2n(CCc3ccccc3)c(=O)c3ccccc3n12)c1ccccc1 (configuration not stated)	i
Cc1oc(-c2ccccc2)nc1CN1CCCC(C(=O)N2CCC(c3nc(C(=O)N4CCCC4)c(C)o3)CC2)C1 (configuration not stated)	i
O=C(c1cccs1)N1CCCCCC1CN1CCCC1 (configuration not stated)	i
CC(=O)N1CCN(C(=O)c2ccc3oc(-c4cccnc4C)nc3c2)CC1	i
CCc1nncn1C1CCN(C(=O)c2cc(-c3cccs3)[nH]n2)C1 (configuration not stated)	i
Cn1nc(-c2ccc(C(F)(F)F)cc2)nc2c(=O)n(C)c(=O)nc1-2	+
C=C1C(=O)O[C@@H]2/C=C(\CO)CC/C=C(/C=O)C[C@@H](O)[C@@H]12	+
CC(=O)NCCNC(=O)C1CCCN(S(=O)(=O)c2ccccc2)CCC(=O)NCC1 (configuration not stated)	i
Cc1ccc(NS(=O)(=O)c2cc3c(cc2N[C@H](C)CO)NC(=O)CC3)cc1C	u
C[C@]12C[C@@H](O)[C@@H]3C[C@@]1(O[C@@H]1O[C@H](CO)[C@@H](O)[C@H](O)[C@H]1O)[C@]3(COC(=O)c1ccccc1)C(=O)O2	+
CCCCCC(=O)N(c1ccc(OCC)cc1)S(=O)(=O)c1ccc2c(c1)n(C)c(=O)n2C	i
O=C(O)C1CCc2nnc(C3CCN(C(=O)c4ccccc4)C3)n21 (configuration not stated)	i
COc1ccccc1N1C(=O)c2cc3ccccc3n2CC1(C)C(=O)NCCC(C)C (configuration not stated)	i
CC1(C(=O)NCc2ccccc2)Cn2nc(-c3ccccc3)cc2C(=O)N1c1ccc2c(c1)OCCO2 (configuration not stated)	i
CCCN1C(=O)c2c(C(=O)NCc3cccc(OC)c3)ncn2CC1(C)C(=O)NC1CCCC1 (configuration not stated)	i
CCn1nccc1C(=O)N1CC[C@H](n2c(=O)n(C)c3cccnc32)C1	i
CCOc1ccc(C(=O)Cn2nc3n(CC(C)C)c(=O)c4ccccc4n3c2=O)cc1	i
COc1ccc2cc(C3CN(CCC(=O)NC(C)(C)C)CCO3)ccc2c1 (configuration not stated)	i
Cc1cccc(CN2CC(=O)N(Cc3ccc(Cl)cc3)c3ccccc3S2(=O)=O)c1	i
CNC(=O)c1cc(C2CC2)nc2onc(C3CCCN3C(C)=O)c12 (configuration not stated)	i
FC(F)(F)c1ccc(CN2CC(N3CCc4ccccc43)C2)cc1	i
CCCCN(C)C(=O)c1c(C)sc2ccn(CCC)c(=O)c12	+
CCOC(=O)CNC(=O)N1Cc2c(sc3c2CCCC3)-n2cccc2C1c1ccc(SC)cc1 (configuration not stated)	i
COc1cc(C(=O)NCCCn2ccnn2)ccc1OC1CCN(C(C)=O)CC1	i
O=C(NCCNC(=O)c1ccccc1F)c1ccc(-c2cncnc2)cc1	i
CCOC(=O)c1cc2n(n1)CC(C)(C(=O)NCc1ccccc1)N(c1ccc(C)cc1C)C2=O (configuration not stated)	i
CCOC(=O)N1CCC(CN(Cc2ccc(Cl)cc2)Cc2ccc([N+](=O)[O-])s2)C1 (configuration not stated)	+
CCC[C@@H]1C[C@@H](C(=O)N[C@@H]([C@H]2O[C@H](SC)[C@H](O)[C@@H](O)[C@@H]2O)[C@@H](C)O)N(C)C1	u
CCN1C(=O)c2cc(C(=O)NCc3cccc(Br)c3)nn2CC1(C)C(=O)NC1CCCC1 (configuration not stated)	i
CCC(C)NC(=O)c1ccc2c(=O)n(CC(C)C)c3nn(Cc4ccc(F)cc4)c(=O)n3c2c1 (configuration not stated)	i
CC1CCC(NC(=O)C2(C)Cn3c(cc4sccc43)C(=O)N2Cc2ccc(OC(C)C)cc2)CC1 (configuration not stated)	i
C/C=C/C1=CC2=C(CO1)C(=O)[C@](C)(O)[C@H](OC(=O)c1c(O)cc(OC)c(O)c1C)C2	i

# The listing continues:
Structure	Methyltransferases
Cc1ccc(-c2n[nH]n3c2nc(=O)c2ccc(C(=O)NCCc4cccs4)cc23)cc1	i
S=C(NCc1ccc2c(c1)OCO2)N1CCN(c2ncnc3c2oc2ccccc23)CC1	i
C=C1CC[C@H]2[C@@](C)(CCC(O)[C@@]2(C)CO)[C@@H]1C/C=C(/C(=O)O)C(O)CO (some centres not stated)	i
COC(=O)C1=C(C)NC(=O)NC1c1ccc(Cl)cc1 (configuration not stated)	i
CCn1c(=O)n(CC)c2cc(S(=O)(=O)Nc3ccc(F)c(F)c3)ccc21	i
COC(=O)c1cc2n(n1)CC(C)(C(=O)NC1CCCCCC1)N(Cc1cccc(OC)c1OC)C2=O (configuration not stated)	i
Cc1ccccc1NC(=O)N1CCn2cccc2C1C (configuration not stated)	i
CC1OC(OC2C(CO)OC(OCC3OC(OC(=O)C45CCC(C)(C)CC4C4=CCC6C7(C)CCC(OC8OC(C(=O)O)C(O)C(OC9OC(CO)C(O)C(O)C9O)C8O)C(C)(C)C7CCC6(C)C4(C)CC5)C(O)C(O)C3O)C(O)C2O)C(O)C(O)C1O (configuration not stated)	i
CNC(=O)c1cc2c(cn1)[nH]c1ccccc12	i
CCOc1ccc(C(=O)Cn2nc3n(CCCOC(C)C)c(=O)c4ccccc4n3c2=O)cc1	i

# Part of the list above, with each value named.
S=C(NCc1ccc2c(c1)OCO2)N1CCN(c2ncnc3c2oc2ccccc23)CC1
  Methyltransferases: i

C=C1CC[C@H]2[C@@](C)(CCC(O)[C@@]2(C)CO)[C@@H]1C/C=C(/C(=O)O)C(O)CO (some centres not stated)
  Methyltransferases: i

# The main list resumes, starting 7 compounds before the break.
Structure	Methyltransferases
COC(=O)C1=C(C)NC(=O)NC1c1ccc(Cl)cc1 (configuration not stated)	i
CCn1c(=O)n(CC)c2cc(S(=O)(=O)Nc3ccc(F)c(F)c3)ccc21	i
COC(=O)c1cc2n(n1)CC(C)(C(=O)NC1CCCCCC1)N(Cc1cccc(OC)c1OC)C2=O (configuration not stated)	i
Cc1ccccc1NC(=O)N1CCn2cccc2C1C (configuration not stated)	i
CC1OC(OC2C(CO)OC(OCC3OC(OC(=O)C45CCC(C)(C)CC4C4=CCC6C7(C)CCC(OC8OC(C(=O)O)C(O)C(OC9OC(CO)C(O)C(O)C9O)C8O)C(C)(C)C7CCC6(C)C4(C)CC5)C(O)C(O)C3O)C(O)C2O)C(O)C(O)C1O (configuration not stated)	i
CNC(=O)c1cc2c(cn1)[nH]c1ccccc12	i
CCOc1ccc(C(=O)Cn2nc3n(CCCOC(C)C)c(=O)c4ccccc4n3c2=O)cc1	i
Cc1cnc(C(=O)N[C@@H]2CN(C3CCOCC3)C[C@H]2CN(C)C)cn1	i
CN1C(=O)c2cc(C(=O)NCc3cccc(Br)c3)nn2CC1(C)C(=O)NCc1ccc(F)cc1 (configuration not stated)	i
CCc1cc2c(cc3n2CC(C)(C(=O)NC2CCCCC2)N(C2CCCCC2)C3=O)s1 (configuration not stated)	i
Cc1nnc([C@H]2CCN(Cc3ncc[nH]3)C2)o1	i
CC1(C(=O)NC2CCCCCCC2)Cc2ccccc2C(=O)N1CCN1CCOCC1 (configuration not stated)	i
CCOc1ccccc1CNC(=O)Cn1ccc2cc(S(=O)(=O)N3CCCCC3)ccc21	i
O=C(CSc1nnc2n(CCc3ccccc3)c(=O)c3ccccc3n12)Nc1ccc(F)cc1	i
C/C=C(\C)C(=O)OC1C(C)C2(O)C(C=C(CO)CC3(O)C(=O)C(C)=CC32)C2C(C)(C)C12OC(C)=O (configuration not stated)	i
CC(C)n1c(=O)c2ccc(C(=O)NC3CCCC3)cc2n2c(=O)n(Cc3cccc(F)c3)nc12	i
Cc1ccc(C2c3cccn3-c3sc4c(c3CN2C(=O)Nc2ccccc2)CCCC4)cc1 (configuration not stated)	i

# Continued; the last two above are carried over.
Structure	Methyltransferases
CC(C)n1c(=O)c2ccc(C(=O)NC3CCCC3)cc2n2c(=O)n(Cc3cccc(F)c3)nc12	i
Cc1ccc(C2c3cccn3-c3sc4c(c3CN2C(=O)Nc2ccccc2)CCCC4)cc1 (configuration not stated)	i
CCCNC(=O)c1cc2n(n1)CC(C)(C(=O)NC1CCCC1)N(CCC)C2=O (configuration not stated)	i
CN1CCN(CCCNC(=O)Cn2ccc3cc(S(=O)(=O)N4CCCCC4)ccc32)CC1	i
CN(C)CCN(C)[C@@H]1[C@H](O)[C@H](CO)O[C@@H]1CNCc1cccc(Cl)c1	i
COc1ccc(-c2cn3c(n2)CO[C@@H](CNC(=O)CCC(=O)O)C3)cc1	i
COc1ccc2[nH]c3c(-c4cccc5ccccc45)nccc3c2c1	u
O=C(N[C@@H]1CCN(C(=O)CCCn2cccn2)C[C@H]1O)c1ccccn1	i
CC/C=C\C(O)C(O)C1=C(C)C(=O)C2(O1)C(=O)NC(OC)(C(=O)c1ccccc1)C2O (configuration not stated)	u
CC[C@@]1(O)CCN(C(=O)c2ccccc2OCc2ccccc2)C[C@H]1O	i
CCN1CCN(C(=O)c2ccc3nc(-c4cccnc4)oc3c2)CC1	i
CCc1nc(NCc2cn[nH]c2-c2ccc(Cl)cc2)c2cnn(C)c2n1	i
CN1CCC(N2CCC[C@H]2c2nc(-c3ccc(OC4CCCCC4)nc3)no2)CC1	i
CCCN1C(=O)c2c(C(=O)NCc3ccco3)ncn2CC1(C)C(=O)NCCC(C)C (configuration not stated)	i
CC(=O)c1c(OCCN2CCCCC2)c(OCCC(C)c2ccc(F)cc2)c2oc(C)nc2c1C (configuration not stated)	i
C/C=C(\C)[C@@H]1C(C)=C[C@@H]2[C@H]([C@@H]1/C=C/C=C/C(=O)O)[C@@H](C)CC[C@@H]2O	u
Cc1ccccc1CN1C(=O)c2cc(-c3ccco3)nn2CC1(C)C(=O)NC1CCCCCC1 (configuration not stated)	i
O=C(O)C1CC2(CCN(C(=O)CCCn3ccnc3)CC2)CN1 (configuration not stated)	i
COc1ccc(-c2n[nH]n3c2nc(=O)c2ccc(C(=O)NCc4cccc(OC)c4)cc23)cc1	i
CC1(C(=O)NC2CCCCC2)Cn2c(ccc2-c2ccco2)C(=O)N1CCc1ccccc1 (configuration not stated)	i
O=C(N1CCC2(CCNCC2)CC1)C1(S(=O)(=O)c2ccccc2)CC1	i
CCCC1c2cccn2CCN1C(=O)Nc1cccc(C)c1 (configuration not stated)	i
O=C(c1ccc(=O)[nH]n1)N1CCCC(c2ccn[nH]2)C1 (configuration not stated)	i
Cc1cc(C)c(S(=O)(=O)c2nnn3c2nc(NCCCOC(C)C)c2ccccc23)c(C)c1	i
CCOc1ccc(-c2cc3c(=O)n(CCNC(=O)c4ccoc4)ccn3n2)cc1	i
COc1cccc(CN2C(=O)c3cc(C(C)(C)C)nn3CC2(C)C(=O)NC2CCCCCC2)c1 (configuration not stated)	i
CC1(CO)CCCC2(C)C1C(OC(=O)c1ccccc1)CC1C(=O)OCC12O (configuration not stated)	i
CCCn1c(=O)c2ccc(C(=O)NC3CCCC3)cc2n2c(SCC(=O)NC3CCCC3)nnc12	i
COc1ccc(CNC(=O)c2ncn3c2C(=O)N(C2CC2)C(C)(C(=O)NCc2ccc(F)cc2)C3)cc1 (configuration not stated)	i
COCCN1C(=O)CCC2(C(=O)N3CCN(c4ccccn4)CC3)CCCC=C12 (configuration not stated)	i
CCCn1c(=O)c2ccc(C(=O)NC(C)C)cc2n2c(=O)n(CC(=O)NCc3ccc(Cl)cc3)nc12	i

# Screening data as filed in PubChem BioAssay.
